Screening results deposited in PubChem BioAssay by several laboratories.
BJeLR lethal: MLPCN primary cell-based screen for lethality selective to Ras in HRASV12 cells. BJeLR (HRASV12) viability, CellTiter-Glo ATP luminescence, 48 h; reference of the scale not given here. 0.17% of 300,000 active. inhibition, % (concentration not given with the values);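 active = replicate mean above 50%; inconclusive = above 50% but judged a plate artefact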;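 also: 50 nL library stock added to about 25 µL; numbers are from one replicate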
Bead autofluor: flagged as autofluorescent in microsphere protease counterscreen. compound autofluorescence counterscreen, microsphere flow cytometry; stronger effect = higher value. fluorescence intensity (no concentration beside the values). 3.1% of 360,000 active. AID 624483;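 active = at least 3 SD above the mean of all compounds, about 16000 in these data; inconclusive = too few beads counted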;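 also: 100 nL of 1 mM stock went into each well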
Numbers without * were called inactive; u = inconclusive; x = no result given. Only part of the results is shown, so the mix of outcomes need not match the whole.

A first look, 3 compounds:
entry	canonical_smiles	BJeLR lethal	Bead autofluor
1	COc1ccc(Cl)cc1Cn1c(C)c(C(=O)NCc2ccc(F)cc2)sc1=O	x	5102
2	Cc1cccc(-c2ccc3[nH]c4c(c3c2)CCN2C[C@@H]([C@H](C)O)[C@@H](N(C)C(=O)Nc3ccc(F)cc3)C[C@@H]42)c1	x	3272
3	CC(=O)c1ccc(OCc2cc(C(=O)N(C)CC3COc4ccccc4O3)no2)cc1 (centres undefined)	x	3511

The list itself, from the start:
entry	canonical_smiles	BJeLR lethal	Bead autofluor
1	COc1ccc(Cl)cc1Cn1c(C)c(C(=O)NCc2ccc(F)cc2)sc1=O	x	5102
2	Cc1cccc(-c2ccc3[nH]c4c(c3c2)CCN2C[C@@H]([C@H](C)O)[C@@H](N(C)C(=O)Nc3ccc(F)cc3)C[C@@H]42)c1	x	3272
3	CC(=O)c1ccc(OCc2cc(C(=O)N(C)CC3COc4ccccc4O3)no2)cc1 (centres undefined)	x	3511
4	COc1cccc(S(=O)(=O)Nc2ccc3c(c2)[C@@H]2C[C@H](CC(=O)NCCc4ccccc4)O[C@H](CO)[C@@H]2O3)c1	x	3607
5	Cc1ccccc1SCC(=O)NCC1(N2CCCCC2)CCCCC1	x	4552
6	Cc1ccc(S(=O)(=O)N2C[C@H]3[C@H]4C(=O)N(c5ccccc5)C(=O)[C@H]4CC(=O)[C@H]3[C@@H]2c2ccccc2)cc1	x	6080
7	O=C(C[C@@H]1C[C@H]2c3cc(NC(=O)c4cccnc4)ccc3O[C@H]2[C@H](CO)O1)NCc1ccc(Oc2ccccc2)cc1	x	3790
8	Cc1c(C(=O)N2CCCC2(C)C(=O)NCC(C)C)oc2ccccc12 (centres undefined)	x	2888
9	CC(C)C[C@H]1CN(CCCC[C@H]2CNC(=O)C(=O)N2CCc2ccccc2)C(=O)C(=O)N1CCc1ccc(O)cc1	x	6059
10	CCCCNS(=O)(=O)c1cccc(NC(=O)[C@@H]2O[C@H](CO)[C@@H](O)[C@H]2O)c1	x	4092
11	CNc1cncc(-c2ccc(OC)cc2)n1	x	2958
12	COc1ccc(OC)c(S(=O)(=O)NC(=O)C2(C)CCN2C(=O)C2(c3ccc(Cl)cc3)CC2)c1 (centres undefined)	x	3702
13	CC(C)N(C(=O)c1ccc(Cc2cn(C)c3ccccc23)nc1)C(C)C	x	3932
14	CC1(C(=O)NS(=O)(=O)c2ccc(Cl)cc2)CCN1C(=O)Cc1ccccc1Cl (centres undefined)	x	3651
15	Cc1cc(C)c2nc(-c3ccccc3)ccc2c1	x	6087
16	COc1cccc(/C=C/C(=O)OCC(=O)c2ccc(Br)cc2)c1	x	3698
17	NC(=O)c1cccc(-c2cnc3c(Nc4cccc(OC(F)(F)C(F)F)c4)nccn23)c1	x	3268
18	CC(C)c1cccc(-c2csc(C(C)(O)c3ccccc3)n2)c1 (centres undefined)	x	3675
19	COc1ccc(OC)c(S(=O)(=O)NC(=O)C2(C)CCN2C(=O)CC2CCCC2)c1 (centres undefined)	x	3653
20	Cc1nc2c(OCC(=O)C(C)(C)C)cccn2c1N(C)Cc1cccs1	x	2885
21	C[C@@H]1CN([C@@H](C)CO)S(=O)(=O)c2ccc(Br)cc2O[C@H]1CN(C)C(=O)Nc1ccc2c(c1)OCO2	x	3441
22	CCOc1ccc(CCN2C(=O)C(=O)N([C@@H](CC(C)C)CN3CCC[C@H]3CN3C(=O)C(=O)NC[C@@H]3Cc3ccccc3)C[C@@H]2Cc2ccc(O)cc2)cc1	x	4401
23	CC(C)C[C@H]1COc2cccc(N3CCC[C@@H]3CO)c2S(=O)(=O)N1	x	6589
24	CC1CCC(C(O)(C(=O)c2ccccc2)c2ccccc2)C(=O)C1 (centres undefined)	x	3667
25	COCCNC(=O)C1(C)CCCN(C(=O)c2ccc3snnc3c2)C1 (centres undefined)	x	4063

The list goes on:
entry	canonical_smiles	BJeLR lethal	Bead autofluor
26	O=C(COC(=O)/C=C/c1cccc(F)c1)NC1CCCCC1	x	4250
27	CCCNC(=O)C1(C)CCN(CCC(=O)c2ccc(Br)cc2)C1 (centres undefined)	x	4035
28	COC(=O)CCCn1cc(CN2CC(N3CCN(C4CCN(C)CC4)CC3)CS2(=O)=O)nn1 (centres undefined)	x	4180
29	CCOC(=O)C1=C[C@@H](c2ccccc2)N(S(=O)(=O)c2ccc(C)cc2)[C@H]1c1ccccc1Cl	x	4112
30	CCOC(=O)C1=NOC2(C1)C(=O)Nc1ccc(OC(F)(F)F)cc12 (centres undefined)	x	5153
31	COc1cccc(CNc2nc(NCC3CC3)nc3ccsc23)c1OC	x	3914
32	CC(OC(=O)c1ccc(S(C)(=O)=O)c([N+](=O)[O-])c1)C(=O)NC1C2CC3CC(C2)CC1C3 (centres undefined)	x	2831
33	COc1ccc(CN2C(=O)C(CC(=O)NCCc3ccccn3)CC(C(=O)N3CCOCC3)=C2C)cc1 (centres undefined)	x	4520
34	Cc1ccc(S(=O)(=O)N2CC3(O)CN(C(=O)OC(C)C)N(C(=O)OC(C)C)CC3(OC(=O)Nc3cccs3)C2)cc1 (centres undefined)	x	3464
35	COC(=O)c1ccccc1COc1cccn2c(N(C)C(=O)CCC3CCCC3)c(C)nc12	x	3528
36	COc1cc(N(C(C)=O)c2ccc(O)cc2)c2ncccc2c1	x	3450
37	CCNC(=O)C1(C)CCCN(C(=O)c2cc(OC)ccc2Br)C1 (centres undefined)	x	2988
38	COc1ccc(NC(=O)COc2ccccc2C(N)=O)cc1S(=O)(=O)N1CCCCC1	x	3895
39	OC(c1cc(Cl)cc(Cl)c1)c1ncc(-c2cccc(F)c2)[nH]1 (centres undefined)	x	2892
40	O=C(c1ccc(CS(=O)c2ccc(Br)cc2)o1)N1CCN(C2CCCCC2)CC1 (centres undefined)	x	3082
41	CCOC(=O)C1CCCN(C(=O)c2cc(C)oc2C)CC1 (centres undefined)	x	3973
42	Cc1ccsc1C(=O)N1CCC1(C)C(=O)NCC(C)(C)C (centres undefined)	x	3674
43	O=C(Nc1cccc(C(=O)O)c1)/C(=C\c1cccc([N+](=O)[O-])c1)NC(=O)c1ccc(Br)cc1	x	3832
44	CCOC(=O)[C@]12CCC=C1N(Cc1cccc3ccccc13)C(=O)[C@H](CC(=O)NCC13CC4CC(CC(C4)C1)C3)C2	x	6510
45	O=C1NC[C@H](CCCCN2C[C@H](Cc3ccccc3)N(CCc3ccc(O)cc3)C(=O)C2=O)N(CC2CCCCC2)C1=O	x	4976
46	Cc1cc(C)cc(C(=O)NCC(=O)OCC(=O)N2CCCC2)c1	x	3621
47	COC(=O)[C@H](CC(C)C)NC(=O)CC[C@H]1O[C@@H](n2cc(C)c(=O)[nH]c2=O)C[C@@H]1O	x	5683
48	COc1ccc(-c2cnc3c(NC(C)=O)cc(-c4cc(F)ccc4OC)cn23)cc1OC	x	2913
49	CCNC(=O)C1CCCN(Cc2cc(-c3ccccc3)on2)CC1 (centres undefined)	x	3846
50	O=C(Nc1ccc(C(=O)N2CCCCC2)cc1)[C@H]1O[C@@H](n2ccc(=O)[nH]c2=O)[C@H](O)[C@@H]1O	x	4445

Look-ups from the results shown:
#46 – Bead autofluor: 3621
#47 – Bead autofluor: 5683
#44 – Bead autofluor: 6510

New compounds follow.
entry	canonical_smiles	BJeLR lethal	Bead autofluor
51	Cc1cccc(C)c1-n1nnnc1C1(C)CCC(=O)N1CCOc1ccccc1 (centres undefined)	x	6153
52	CCN1CCN(c2nc3c(c(=O)[nH]c(=O)n3C)n2Cc2cccc(C)c2)CC1	x	3654
53	Cc1ccc2c(c1)CCCO[C@]21O[C@H](CCO)C[C@H](O)[C@H]1O	x	5909
54	O=C(CCn1cccn1)N1CCCC(Nc2ccc(F)c(F)c2)C1 (centres undefined)	x	2831
55	COc1cc(-c2cc(NC=O)c3ncc(-c4ccc(F)cc4)n3c2)cc(OC)c1OC	x	4028
56	CCN(CC(=O)Nc1c(F)cccc1F)C(=O)c1ccc(OC)c(S(=O)(=O)NC2CCCC2)c1	x	2841
57	CCc1nc2ccc(C(=O)Nc3ccc4c(c3)OCC(=O)N4)cn2c1N(CC)CCOC	x	3840
58	CC1(C(=O)NS(=O)(=O)c2cccc(F)c2)CCN1C(=O)c1ccccc1 (centres undefined)	x	3788
59	CCCS(=O)(=O)NC(=O)C1(C)CCN(C(=O)c2ccccc2C(F)(F)F)C1 (centres undefined)	x	3908
60	CN1C(=O)CCS(=O)(=O)C1c1ccc(Cl)c(Cl)c1 (centres undefined)	x	3734
61	Cc1nc(C(=O)N2CCCC(N3CCN(c4ccc(F)cc4)CC3)C2)cs1 (centres undefined)	x	3991
62	O=C(/C=C/c1cccc([N+](=O)[O-])c1)OCC(=O)N1CCCCC1	x	4037
63	COc1ccc(OC)c(NC(=O)C2(C)CCN2Cc2ccc(SC)cc2)c1 (centres undefined)	x	3971
64	CCCCCCCCN1C(=O)[C@H](CC(=O)NCc2cccc3ccccc23)C[C@@]2(C(=O)OCC)CCCC=C12	x	4084
65	CCCCNC(=O)C(NC(=O)c1ccc(=O)[nH]c1)C(=O)c1ccccc1 (centres undefined)	x	6276
66	CCOc1ccc(NC(=O)C2CCCN(S(=O)(=O)c3ccc4c(c3)C(C)(C)C(=O)N4C)C2)cc1 (centres undefined)	x	5285
67	Cc1nc(NC(=O)C(C)(C)C)sc1C(=O)Cn1cc(CCCC#N)nn1	x	6036
68	CCO/C(C)=N/Oc1cnc2ccccc2c1	x	5161
69	O=C(NC(c1ccc(Cl)cc1)c1ccsc1)C1CCN(Cc2ccc(Oc3ccccc3)cc2)CC1 (centres undefined)	x	4014
70	OC(c1ccc(F)cc1)c1nc(-c2cc3ccccc3o2)cs1 (centres undefined)	x	4014
71	Fc1cccc(-c2ccc3c(c2)CN(C(=S)NCCc2ccccc2)Cc2cnnn2-3)c1	x	5968
72	CCOC(=O)N(C)c1c(CC)nc2c(OCc3cc(Cl)cc(Cl)c3)cccn12	x	3625
73	COCOCCn1cc(CN2CCS(=O)(=O)N(Cc3ccc(-c4ccc(C)cc4)cc3)C(C(C)C)C2=O)nn1 (centres undefined)	x	3509
74	CCNC(=O)C1(C)CCCN(Cc2ccc(-n3ccnc3)cc2)C1 (centres undefined)	x	4021
75	CSc1ncnc2c1ncn2CCCNCCCN1CCCC1=O	x	3693

Along the list, quoted from above:
Bead autofluor, entries 65–71, in order: 6276, 5285, 6036, 5161, 4014, 4014, 5968

(cont.)
entry	canonical_smiles	BJeLR lethal	Bead autofluor
76	CN1CCn2cnc(C(=O)Nc3ccc(CNC(=O)OC(C)(C)C)cc3)c2C1=O	x	2905
77	C[C@H]1CNC(=O)c2c(C(=O)Nc3ccc(CNC(=O)OC(C)(C)C)cc3)ncn21	x	2968
78	CCOC1=C2CN(S(=O)(=O)c3ccc(C)cc3)[C@H](c3cccc(Cl)c3)C[C@@H]2N(S(=O)(=O)c2ccccc2[N+](=O)[O-])[C@H](c2ccccc2)C1	x	5899
79	Cc1cccc(CN2CCN(C3CN(Cc4cn(Cc5ccc(F)cc5)nn4)S(=O)(=O)C3)CC2)c1 (centres undefined)	x	5651
80	CN(C)c1ncnc2c1ncn2[C@H]1CN(Cc2ccc(F)cc2)C[C@@H](CO)O1	x	3818
81	O=C(COC(=O)C1CCC1)Nc1cc(S(=O)(=O)N2CCOCC2)ccc1Cl	x	2971
82	O=C(N/C=C/n1cnc2cc(C(F)(F)F)ccc21)c1ccc(F)cc1	x	3976
83	COc1cccc(-c2cnc(C(O)c3ccc(Cl)cc3C)[nH]2)c1 (centres undefined)	x	2936
84	Cc1noc(C)c1C(=O)OCC(=O)Nc1cccc(F)c1	x	3764
85	O=C1[C@H]2[C@@H](c3ccc(C(F)(F)F)cc3)N[C@]3(CCCN(Cc4ccccc4)C3=O)[C@H]2C(=O)N1Cc1ccccc1	x	3402
86	C[C@@H]1CN([C@@H](C)CO)C(=O)c2cc(Br)cnc2O[C@H]1CN(C)C(=O)c1ccc2c(c1)OCO2	x	3974
87	CCc1nc2c(OCc3ccc(C(=O)N(C)C)cc3)cccn2c1N(C=O)Cc1ccccc1	x	3915
88	COc1cc(CNCCc2c[nH]c3ccccc23)cc(OC)c1OC	x	3652
89	CCOc1ccccc1NC(=O)C1CCCN1S(=O)(=O)c1ccc2c(c1)C(C)(C)C(=O)N2C (centres undefined)	x	5526
90	Cc1ccc(C(=O)N/N=C/c2cccc3ccccc23)cn1	-4.7	3458
91	Fc1ccc(Cn2nnc3ccccc32)cc1	0.2	3460
92	Cc1ccc(N2C(=O)CS/C2=N\C(=S)Nc2ccccc2)cc1	-3.9	4395
93	Cc1ccc(CN2CCN(/N=C/C(Br)=C\c3ccccc3)CC2)cc1	-3.6	4067
94	CC/C(=N\NC(N)=O)c1ccc(OC)c(OC)c1	-13.1	3912
95	C/C(=N\NC(=O)Cc1cccn1C)c1ccc([N+](=O)[O-])cc1	-6.0	5681
96	Cc1ccc(OCC(=O)NNC(=O)CCC(=O)Nc2ccc(C)cc2C)cc1	-4.7	8235
97	O=C1CS/C(=N/N=C/c2ccco2)N1Cc1ccc(F)cc1	4.1	3435
98	Oc1ccc(/C=N/Nc2ncnc3nc[nH]c23)cc1	14.9	4425
99	C/C(=N\NC(=O)CN1CCCCC1)c1ccccc1O	0.0	2984
100	C/C(Cc1nnn(-c2cc(C)on2)n1)=N\O	1.6	5926

(more compounds)
entry	canonical_smiles	BJeLR lethal	Bead autofluor
101	CC(=O)O[C@@H]1/C=C/[C@](C)(O)C[C@@H](C)C/C=C/[C@H]2[C@@H]3O[C@]3(C)[C@@H](C)[C@H]3[C@H](Cc4ccccc4)NC(=O)[C@@]312	14.9	5314
102	C/C(=N\NC(=O)c1ccccn1)c1ccc(Cl)cc1	-12.7	u
103	Cc1cc(C(=O)O/N=C(\N)c2ccc(C(C)(C)C)cc2)no1	-11.7	6077
104	FC(F)(F)c1cccc(-n2cccc2/C=N/n2cnnc2)c1	-9.0	12625
105	COc1cccc(/C=N/NC(=O)CSCC(=O)Nc2ccccc2)c1O	-11.9	11016
106	CCn1nc(C)c(/C=N/NC(=O)Cn2cncn2)c1C	-1.4	5683
107	CCOC(=O)N/N=C/c1ccccc1F	-8.3	7835
108	O=C(N/N=C/c1cccc(O)c1)N/N=C/c1cccc(O)c1	5.4	4894
